Ecoli growth: E. coli growth inhibition | OD600 absorbance (test concentration not listed) | Escherichia coli growth, OD600, 23 h; active compounds read low | 330,000 compounds, 0.21% hits;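 active = OD600 absorbance below the run mean of sample wells minus 3.6 SD, in any replicate, cut at about 0.56 in these data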;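 also: stock transfer was 300 nL into about 60 µL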
* = called active by the depositor; & = joins results of further samples. A portion of the library; the hit share may differ from the screen's.

SMILES	Ecoli growth
COC(=O)c1ccc(C23CC4(C2)C(CN(CC2CCCCC2)C4c2ccccc2)C3c2ccc(Cl)nc2)cc1 (centres undefined)	0.726
CCOC(=O)C1C2COc3ccc(Cl)cc3C2N2C(=O)c3ccccc3NC(=O)[C@@]12C (some centres undefined)	0.695
NC(=NOC(=O)Cc1ccc(-c2ccccc2)cc1)c1ccncc1	0.659
COC(=O)CC1c2cc(F)ccc2S(=O)(=O)N1c1ccc(N(C)C)cc1 (centres undefined)	0.667
CCOC(=O)O[C@]1(C(=O)OCCl)CCC2C3CCC4=CC(=O)C=C[C@]4(C)C3C(O)C[C@@]21C (some centres undefined)	0.696
CNCC(CC1CCCCC1)NCC(CC(C)C)NCCc1cccc(C(F)(F)F)c1 (centres undefined)	0.0675*
O=C(CC1CC=CCC(Cc2ccc(F)cc2)C(=O)OCC2CCCN2C1=O)NC(CO)Cc1ccccc1 (centres undefined)	0.672&0.68&0.694&0.691&0.681&0.677
CC(C)(C)NC(=O)C1CN(Cc2cccnc2)CCN1CC(O)CC(Cc1ccccc1)C(=O)NC1c2ccccc2CC1O (centres undefined)	0.637
COC(=O)C1=C(C)N(Cc2ccccc2)C(=NCCCCO)NC1c1ccccc1 (centres undefined)	0.687
NC(=O)C1CCOc2c(I)cc([N+](=O)[O-])cc2C(=O)NC(CO)C(=O)NCC(=O)N1 (centres undefined)	0.662
Cc1ccc(S(=O)(=O)Nc2cccc3c2OC(CN(C)C(=O)Nc2ccc4c(c2)OCO4)C(C)CN(C(C)CO)C3=O)cc1 (centres undefined)	0.674
Cc1ccccc1N1CCN(C2=NC(=O)C(=Cc3cccs3)S2)CC1	0.75
C=CCOC(=O)C1=CC(c2ccccc2)CC(OCc2ccc(CO)cc2)O1 (centres undefined)	0.677
CCCCN1CC(O)C(O)C(O)C1CO (centres undefined)	0.718
CCN1C(=O)C2C(c3ccc(-c4ccc(OC)cc4)cc3)N3CCCC[C@@]3(C(=O)OC)C2C1=O (some centres undefined)	0.733&0.703
COc1ccc(-c2ccc(N(C)C)cc2)cc1C1C2C=CCC(C)C2C(=O)N1Cc1ccccc1 (centres undefined)	0.704
Cc1ccc2c(c1)C1C(CO2)C(c2ccccc2)[C@]2(C)C(=O)Nc3ccc(F)cc3C(=O)N12 (some centres undefined)	0.731
COCCN=C1NC(c2ccccc2)C(C(=O)OC)=C(C)N1Cc1ccccc1 (centres undefined)	0.68
C=CCNC(=O)C(C#N)=Cc1cn(-c2ccccc2)nc1-c1cccs1	0.712
CC(C(=O)Nc1ccc2ccccc2c1)C1C[C@@]1(C)C(NC(=O)c1cccnc1)c1ccccc1 (some centres undefined)	0.72
COC(=O)[C@@]1(Cc2ccc(OC)cc2)C2c3cc(C(=O)N4CCCC4)n(CCO)c3CC2CN1C(=O)c1ccccc1 (some centres undefined)	0.699
C#CCOCCOCCOCCNc1nc(N2CCN(C(=O)CCCCCCCCCCNC(=O)C(CCCCN)n3cc(CCO)nn3)CC2)nc(N2CCN(C(=O)CCCCCCCCCCNC(=O)C(C(C)O)n3cc(C)nn3)CC2)n1 (centres undefined)	0.603
CSc1ccc(C=C(NC(=O)c2ccc(C)cc2)C(=O)Nc2cccc(C)c2)cc1	0.706
C=CCOC(=O)C1=CC(c2ccc(Br)cc2)CC(OCc2ccc(CO)cc2)O1 (centres undefined)	0.69&0.705
CN1CCC(=O)N(C(CC#N)c2ccccc2)CC1 (centres undefined)	0.705

Shown with bars between the fields: entries from further up.
canonical_smiles | Ecoli growth
CC(C)(C)NC(=O)C1CN(Cc2cccnc2)CCN1CC(O)CC(Cc1ccccc1)C(=O)NC1c2ccccc2CC1O (centres undefined) | 0.637
COC(=O)C1=C(C)N(Cc2ccccc2)C(=NCCCCO)NC1c1ccccc1 (centres undefined) | 0.687
NC(=O)C1CCOc2c(I)cc([N+](=O)[O-])cc2C(=O)NC(CO)C(=O)NCC(=O)N1 (centres undefined) | 0.662
Cc1ccc(S(=O)(=O)Nc2cccc3c2OC(CN(C)C(=O)Nc2ccc4c(c2)OCO4)C(C)CN(C(C)CO)C3=O)cc1 (centres undefined) | 0.674

The list continues.
SMILES	Ecoli growth
c1cc(-c2cn(CC3CCC(C4CCC(Cn5cc(-c6ccsc6)nn5)O4)O3)nn2)cs1 (centres undefined)	0.714
COc1ccc(NC(=O)C2CC=CC3CCN(C4CCCCC4)C(=O)C32)cc1 (centres undefined)	0.699
CCOC1OC(C(=O)NCc2ccccc2)=CC(C2CC2)C1CCCO (centres undefined)	0.707&0.679
CCN1C(=O)N(S(=O)(=O)C(F)(F)F)C(c2ccccc2)C(C(=O)OC)=C1C (centres undefined)	0.676
C=C1C(=O)OC2C(O)C(C)=CC(=O)C=C(C)CC(OC(=O)C(C)=CC)C12 (centres undefined)	0.675
O=C1C(Cc2ccccc2)NCC=CCC(c2ccc(Cl)cc2)N1Cc1ccccc1 (centres undefined)	0.695&0.659
C#CCOCCOCCOCCNc1nc(N2CCN(C(=O)C(CCC(=O)O)n3cc(C(N)Cc4ccc(O)cc4)nn3)CC2)nc(N2CCN(C(=O)C(C(C)CC)n3cc(C(N)CC(C)C)nn3)CC2)n1 (centres undefined)	0.667
CC[C@@]12C(=O)N(c3cccc(F)c3)C(=O)N1C(c1ccc(Br)cc1)C1C(=O)N(C(C)(C)C)C(=O)C12 (some centres undefined)	0.691
COc1ccc(SC(CCN2CCC(O)CCC2=O)c2ccccc2)cc1 (centres undefined)	0.658
O=C1C=C(c2ccc(-c3ccccc3)cc2)CC(c2ccc(F)cc2)C1 (centres undefined)	0.732
S=C1NCC(Cc2ccccc2)N1CCc1cccc2ccccc12 (centres undefined)	0.699
COC(=O)[C@@]12CCCCN1C(c1ccc(SC3CCCCC3)c(OC)c1)C1C(=O)N(C)C(=O)C12 (some centres undefined)	0.715
CC1CCC(CN2C(Nc3ccccc3)=NCC2Cc2ccccc2)CC1 (centres undefined)	0.646
COc1cc(CNC(=O)CCCCC=CC(C)C)ccc1O	0.711&0.673
CCOC(=O)C=Cc1ccc2oc3ccccc3c(=O)c2c1	0.665
Cc1ccc(NC(=O)CN2C(=O)SC(=Cc3cccn3-c3cccc(C(=O)O)c3)C2=O)cc1C	0.723
COc1cccc(C2=CC(=O)CC(c3ccc(Cl)cc3)C2)c1OC (centres undefined)	0.713
COC(=O)C=Cc1cnc[nH]1	0.64
COc1ccc2nc(NC(N)=NC(=S)Nc3ccc(C)c(C)c3)nc(C)c2c1	0.68
CCCCCC(=O)Nc1cccc(C2=NOC3(C2)CC(C(N)=O)N(C(=O)CC(c2ccccc2)c2ccccc2)C3)c1 (centres undefined)	0.735
COC(=O)CN1C(=O)C2C(C=Cc3ccccc3)N3C(=O)CN(Cc4ccccc4)C(=O)[C@@]3(Cc3ccccc3)C2C1=O (some centres undefined)	0.655
CCc1ccc(C2CC=C(C(=O)O)CN2S(=O)(=O)c2ccc(C)cc2)cc1 (centres undefined)	0.68
CCc1ccccc1NC(=O)c1cccc(NC(=O)C=Cc2ccco2)c1	0.645
Cc1ccc(SCC(Cc2ccccc2)N2CCC(C)CCC2=O)cc1 (centres undefined)	0.705
CC[n+]1ccc(C=C2Sc3ccccc3N2CCCS(=O)(=O)[O-])c2ccccc21	0.713
The results go on.
SMILES	Ecoli growth
C=C1CCN(C(CC(C)C)C(=O)Nc2ccc(OC)cc2)S(=O)(=O)c2ccccc21 (centres undefined)	0.681
Cc1cc(COC(=O)C2N3C(=O)C(NC(=O)COc4ccccc4)C3SC2(C)C)on1 (centres undefined)	0.693
COc1ccc(C=CC(=O)c2ccc([N+](=O)[O-])o2)cc1	0.601
CCC(C)C(NC(=O)OC(C)(C)C)c1nnc(SCc2c(C)[nH]c(=O)[nH]c2=O)o1 (centres undefined)	0.705
COc1ccc(S(=O)(=O)Nc2ccc3c(c2)C(=O)N(C(C)CO)CC(C)C(CN(C)C(=O)Nc2c(C)noc2C)O3)cc1 (centres undefined)	0.706
CC1CC=CC2C1C(=O)N(Cc1ccccc1)C2c1ccc(C=Cc2ccccc2)cc1F (centres undefined)	0.656
Cc1cccc(CC2SC(=Nc3ccccn3)NC2=O)c1 (centres undefined)	0.699
CCOC(=O)C1C2COc3ccc(C)cc3C2N2C(=O)c3cc(C)ccc3NC(=O)[C@@]12C (some centres undefined)	0.714
Cc1ccc(C2C3C(=O)N(C)C(=O)C3[C@]3(C)C(=O)N(CC4CC4)CC(=O)N23)o1 (some centres undefined)	0.614
CCn1nc(C(=O)NC(CCSC)c2nc3ccccc3[nH]2)c2ccccc2c1=O (centres undefined)	0.706
COc1ccc(C2CC=C(C(=O)O)C(c3ccc(Cl)cc3)N2S(=O)(=O)c2ccc(Cl)cc2)cc1 (centres undefined)	0.715
CC=C(C)C(=O)OC1c2cc3c(c(OC)c2-c2c(cc(OC)c(OC)c2OC)C(OC(C)=O)C(C)C1C)OCO3 (centres undefined)	0.686
COc1c2ccoc2c(OCC(O)C(C)(C)O)c2oc(=O)ccc12 (centres undefined)	0.683
C#CCOCCOCCOCCNc1nc(N2CCN(C(=O)C(CCCCN)n3cc(CCCC)nn3)CC2)nc(N2CCN(C(=O)C(C(C)O)n3cc(CCCCN)nn3)CC2)n1 (centres undefined)	0.632
COC(=O)C1=C(C(=O)OC)C2N(C)c3ccc(OC)cc3[C@@]23CC(C(=O)OC)N(C(=O)COCc2ccccc2)C3=N1 (some centres undefined)	0.675
Cc1ccc(-c2cn(CC3CCC(C4CCC(Cn5cc(-c6ccc(C)cc6)nn5)O4)O3)nn2)cc1 (centres undefined)	0.721
CCCCCCSc1ccc(C2C3C(=O)N(CC)C(=O)C3[C@]3(C(=O)OC)CCCN23)cc1 (some centres undefined)	0.681
COC(=O)[C@@]1(Cc2ccc(F)cc2)C2c3cc(C(=O)N4CCCC4)n(CCc4ccc(O)c(O)c4)c3CC2CN1C(=O)c1ccccc1 (some centres undefined)	0.704
C#CCNC(=O)C1=CC(C)C(CCCO)C(OCC)O1 (centres undefined)	0.704
Cc1cn(C(C(=O)NCCCCCCCCCCC(=O)N2CCN(C(=O)OC(C)(C)C)CC2)C(C)O)nn1 (centres undefined)	0.652
O=C(O)C=Cc1ccc(S(=O)(=O)NCc2ccco2)cc1	0.734
CCCCC1CNC(=S)N1CCCC (centres undefined)	0.688
C#CCNC(=O)C1=CC(c2coc3ccccc3c2=O)C(CCCO)C(OCC)O1 (centres undefined)	0.689&0.68
Cc1ccc2c(c1)C(=O)N1C3c4cc(C)ccc4OCC3C(c3ccccc3)[C@]1(C)C(=O)N2 (some centres undefined)	0.727
COc1ccc(S(=O)(=O)Nc2ccc3c(c2)C(=O)N(C(C)CO)CC(C)C(CN(C)C(=O)NC2CCCCC2)O3)cc1 (centres undefined)	0.682
The list continues:
SMILES	Ecoli growth
COC(=O)C1NC(=O)N2C1SC(C)(C)C2C(=O)OC (centres undefined)	0.688
COc1ccc(C=CC(=O)c2ccc([N+](=O)[O-])o2)cc1OC	0.543
CC(O)CCC(C)OC1OC(C)C(O)CC1O (centres undefined)	0.667
CCOC(=O)CC1c2cc(F)ccc2S(=O)(=O)N1Cc1ccc(OC)cc1 (centres undefined)	0.689
CCC(C)NC(=O)NC(Cc1ccccc1)C(=O)O (centres undefined)	0.699
COC(=O)[C@@]12CCCCN1C(c1ccc(-c3ccc(OC)cc3)cc1)C1C(=O)N(C)C(=O)C12 (some centres undefined)	0.704&0.694
COc1ccc(C2CC=C(C(=O)O)CN2S(=O)(=O)c2ccc(C)cc2)cc1OC (centres undefined)	0.714
O=C(C1=CC(c2ccccc2)CC(OCCCCO)O1)N1CCN(Cc2ccc3c(c2)OCO3)CC1 (centres undefined)	0.715&0.705
C#CCOCCOCCOCCNc1nc(N2CCN(C(=O)C(CCCCN)n3cc(CN)nn3)CC2)nc(N2CCN(C(=O)C(C(C)O)n3cc(C(N)CCCCN)nn3)CC2)n1 (centres undefined)	0.683
O=C1NCC(Cc2ccc(O)cc2)N(CCc2cccc(F)c2)C1=O (centres undefined)	0.684
O=c1c2nnn(-c3ccccc3)c2ncn1CC=Cc1ccccc1	0.717
COC(=O)C1=C(C)N(Cc2ccccc2)C(=O)NC1c1cccc(C(F)(F)F)c1 (centres undefined)	0.656
O=C(C1=CC(c2ccc(Br)cc2)CC(OCCCCO)O1)N1CCN(Cc2ccc3c(c2)OCO3)CC1 (centres undefined)	0.651&0.714
O=C(O)C=CC(=O)NCCC1=CCCCC1	0.631
CN1CC2C3C(=O)N(C)C(=O)C3[C@](C)(C1=O)N2C(=O)c1ccc(C(F)(F)F)cc1 (some centres undefined)	0.66
C#CCOCCOCCOCCNc1nc(N2CCN(C(=O)C(CCC(=O)O)n3cc(C(N)CC(C)C)nn3)CC2)nc(N2CCN(C(=O)C(Cc3ccc(O)cc3)n3cc(C(N)CC(C)C)nn3)CC2)n1 (centres undefined)	0.7
NC(=O)C1(NC(=O)C2CC3(CC(c4cccc(NC(=O)C5CCC(=O)N5)c4)=NO3)CN2C(=O)Cc2ccc(Cl)cc2)CC1 (centres undefined)	0.729
CCN1C(=O)C2C(c3ccc(-c4cccc(Cl)c4)c(OC)c3)N3CCCC[C@@]3(C(=O)OC)C2C1=O (some centres undefined)	0.731&0.711
COc1cc(C2OCC3C(c4ccc(O)c(OC)c4)OCC23)ccc1O (centres undefined)	0.666
CC(C)NC(=O)C(C#N)=Cc1ccc(N(C)C)c(Br)c1	0.688
CCOC(=O)C1C2COc3cc(OC)ccc3C2N2C(=O)c3cc(OC)ccc3NC(=O)[C@@]12C (some centres undefined)	0.68

Four of the compounds above, as labelled records.
SMILES: O=C1NCC(Cc2ccc(O)cc2)N(CCc2cccc(F)c2)C1=O (centres undefined)
  Ecoli growth: 0.684

SMILES: O=c1c2nnn(-c3ccccc3)c2ncn1CC=Cc1ccccc1
  Ecoli growth: 0.717

SMILES: O=C(C1=CC(c2ccc(Br)cc2)CC(OCCCCO)O1)N1CCN(Cc2ccc3c(c2)OCO3)CC1 (centres undefined)
  Ecoli growth: 0.651&0.714

SMILES: C#CCOCCOCCOCCNc1nc(N2CCN(C(=O)C(CCCCN)n3cc(CN)nn3)CC2)nc(N2CCN(C(=O)C(C(C)O)n3cc(C(N)CCCCN)nn3)CC2)n1 (centres undefined)
  Ecoli growth: 0.683
